Source: PubChem BioAssay (several laboratories)
BJeLR viability = BJeLR cell viability loss; BJeLR (HRASV12) viability, CellTiter-Glo ATP luminescence, 48 h; reference of the scale not given here; inhibition, % (concentration not given with the values); 0.17% of 300,000 active;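 active = replicate mean above 50%; inconclusive = above 50% but judged a plate artefact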;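 also: 50 nL library stock added to about 25 µL; numbers are from one replicate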
Bead autofluor = flagged as autofluorescent in microsphere protease counterscreen | compound autofluorescence counterscreen, microsphere flow cytometry; active compounds read high | fluorescence intensity (test concentration not listed) | 3.1% of 360,000 active;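 active = at least 3 SD above the mean of all compounds, about 16000 in these data; inconclusive = too few beads counted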;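 also: 100 nL of 1 mM stock went into each well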
PrP 5UTR inh = suppresses PrP 5' UTR mRNA reporter expression. AID 488862. inhibition, % (test concentration not listed). 0.35% of 340,000 active. cell-based PrP 5' UTR mRNA reporter, plate reader;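 active = every replicate at 50% or more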;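 also: 0 = median of the neutral control wells; tested in H4 reporter cells; numbers are from one replicate; inactives centre near -14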
RN4220 kill = S. aureus RN4220 growth inhibition. OD600, 16 h. inhibition, % (no concentration beside the values). 0.33% of 330,000 active. AID 1259311;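 active = z-score of -3 or lower and OD600 up to 0.18 on both plates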;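 also: plate controls were untreated cells for no effect and reference antibiotic for full effect; stock transfer was 100 nL into about 80 µL; one replicate is shown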
Mtb hypoxia rep = reduces hypoxia-regulated biosensor signal in M. tuberculosis | M. tuberculosis hypoxia-regulated fluorescent reporter, fluorescence | fluorescence inhibition, % (no concentration beside the values) | 0.1% of 300,000 active | AID 1159583;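 active = 35 to 45% if threefold the growth effect, above 45% if 1.5-fold the growth effect; inactive = the rest, general growth blockers included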;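 also: wells of about 50 µL received 100 nL stock; 0% = vehicle wells and 100% = reference inhibitor wells; whole bacteria with a GFP reporter of the hypoxia response; strong numbers were not always called active; many hits fall short of the cut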
Sa ugtP lethal = compounds lethal to S. aureus RN4220 ugtP deletion mutant. OD600 growth, 16 h; some inactives read as strong as hits. growth inhibition, % (concentration not given with the values). 0.54% of 330,000 active;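 active = z-score under -3 and OD600 up to 0.15 on both plates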;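 also: plate controls were untreated wells for no effect and antibiotic for full effect; wells of about 80 µL received 100 nL stock; the first replicate is given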
Mtb hypoxia rep growth = recorded beside Mtb hypoxia rep, whose call it bears; growth inhibition, %; measured here: M. tuberculosis growth (absorbance);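 0% = vehicle and 100% = reference antibiotic; read after six days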
* marks the source's active call; other numbers are inactive results; u = inconclusive; x = no result given; & = joins results of further samples.

SMILES	BJeLR viability	Bead autofluor	PrP 5UTR inh	RN4220 kill	Mtb hypoxia rep	Mtb hypoxia rep growth	Sa ugtP lethal
CC(=O)c1cccc(-n2c(CCC(=O)O)ccc2-c2cccs2)c1	6	4247	-34	4.9	5	1	-3
COC(=O)C1=C(N)Oc2c(oc(CO)cc2=O)C1c1ccc(F)cc1 (configuration not stated)	-11	5954	x	2.0	-3	0	0
C=CCC1(CC=C)CCCN1C(=O)c1cc(COc2ccc(C)nc2)on1	14	x	-35	2.1	-2	9	3
CCOC(=O)C(C(=O)Nc1ccccc1)C1CCCCC1 (configuration not stated)	-3	2537	6	0.4	x	x	3
CCCNC(=O)CSc1nnc(C)s1	x	9810	x	-2.2	-9	-2	1
CCOc1ccccc1N1CC(C(=O)Nc2cc(S(=O)(=O)N3CCOCC3)ccc2OC(C)C)CC1=O (configuration not stated)	x	3363	-33	-2.1	10	6	1
CC1CCC2(CC1)NC(=O)N(CC(=O)Nc1cccnc1Cl)C2=O (configuration not stated)	x	4132	-33	0.4	-5	-10	1
CCOC(=O)N1CCN(C(=O)CSc2nc(=O)n3cccc(C)c3n2)CC1	2	6340	-1	2.9	12	-1	-2
O=C(CCC(=O)n1ncc2ccccc21)N1CCCCC1	0	5213	-16	5.1	5	1	4
Cc1ccccc1NS(=O)(=O)c1cc2c3c(c1)CC(=O)N3CCC2	3	5633	-19	6.5	10	4	-7
[2H]c1c([2H])c([2H])c(C(=O)c2sc(N3CCCCCC3)nc2-c2ccccc2)c([2H])c1[2H]	-4	2680	-41	7.9	x	x	16
O=C(NC1CC1)c1ccc(-c2nc3ccccc3s2)s1	7	3040	66*	-2.1	x	x	1
CC(=O)c1ccccc1NC(=O)CSCc1nc2sc(C)c(C)c2c(=O)[nH]1	x	6445	-16	2.1	-8	0	8
CSc1ccc(-c2c(C#N)c(N)nc3c2c(C)nn3-c2ccccc2)cc1	-11	9649	6	-1.8	-6	13	-26
COC(=O)c1ccc(CNC(=O)/C=C/c2cc([N+](=O)[O-])ccc2OC(F)F)cc1	-3	19547*	-7	3.2	9	5	-6
COC(=O)c1ccc2nc(-c3ccc(S(C)(=O)=O)cc3)cn2c1	4	3875	-69	-6.9	-7	-2	-4
COC(=O)CCC(=O)Nc1ccc(OC)cc1	9	5009	-5	1.3	x	x	2
COc1cc2c(cc1Cl)/C(=C\CCN(C)C)c1ccccc1S2	8	10521	-21	x	x	x	x
CCC(=O)Nc1nnc(CCc2ccccc2)s1	-4	2890	-32	-15	4	11	-10
CC12CCC(=O)N1C(C(=O)NCc1ccccc1F)CS2 (configuration not stated)	4	u	-15	3.0	7	-2	1
CCc1ccc(S(=O)(=O)Nc2c(NC3CCCCC3)c3ccccc3oc2=O)cc1	-1	6379	2	2.2	5	4	-7
CSc1nc(Oc2ccccc2)c2sccc2n1	-9	2999	-14	3.3	2	0	47
CC1=NN(C(N)=S)C(=O)C1N=Nc1c(Cl)cc([N+](=O)[O-])cc1Cl (configuration not stated)	3	3471	-2	2.8	11	-1	5
CCCc1cc(=S)n2c([nH]c3ccccc32)c1C#N	4	3241	-5	76	11	6	77
O=C(c1cccc(S(=O)(=O)N2CCCCCC2)c1)N1CCN(Cc2ccccc2)CC1	x	3464	-33	-1.0	7	6	4
O=C(O)Cn1cc(C(=O)C(F)(F)F)c2ccccc21	-7	4581	-10	7.0	12	1	6
COc1cccc(NC(=O)CN(C)C(=O)C(Sc2ccccc2)c2ccccc2)c1 (configuration not stated)	x	x	9	-0.2	-3	-4	1
COc1cc(OC)c(OC)cc1CNC(=O)c1cc(S(=O)(=O)N(C)c2ccccc2OC)ccc1C	x	2871	-17	5.2	-2	-2	9
CC(C)(C)SCCNS(=O)(=O)c1ccccc1	-5	7227	-15	5.7	12	3	11
CCOc1ccc2ccccc2c1CNCCc1ccc(S(N)(=O)=O)cc1	2	4243	-28	3.5	11	3	6
Cc1cc(C)c(C(=O)NC2CC(C)(C)Cc3c2cnn3-c2ccccc2)o1 (configuration not stated)	1	5669	11	0.8	-6	7	-1
Cc1cc(NC(=O)c2sccc2C)n(-c2nc3ccccc3[nH]2)n1	-10	4922	-15	67	4	4	85
Cc1ccc(-c2csc(N3CCN(c4cc5c(cc4Cl)nc(-c4ccncc4)n5CCN4CCCCC4)CC3)n2)cc1	-7	3650	-13	x	x	x	x
COc1ccc(CC(NC(C)=O)C(=O)NC2CCN(C(=O)NCc3ccccc3)CC2)cc1 (configuration not stated)	2	7938	-18	3.6	3	4	2
COc1ccc2nc(NCc3ccccc3)[nH]c2c1	-7	14780	-15	-0.7	-3	6	2
COc1cc(OC)cc(C(=O)Nc2ccc(S(=O)(=O)Nc3nc(C)cc(C)n3)cc2)c1	x	3507	-22	3.9	11	8	12
O=C(NCCN1CCN(c2cccc(Cl)c2)CC1)Nc1ccccc1	6	4002	-9	-0.2	9	2	13
CC(=O)N1CC[n+]2c(-c3ccc([N+](=O)[O-])cc3)csc21	1	x	-8	1.2	1	-7	9
CC1Cc2ccccc2N1C(=O)CSc1nccc(=O)[nH]1 (configuration not stated)	-13	2544	-11	6.3	1	-3	-3
COc1ccc(C(=O)/C=C/c2ccccc2)c(O)c1	9	5845	-48	-1.2	x	x	11
CCOC(=O)/C(C#N)=C\N(C)C	-4	x	-9	2.1	-1	3	-1
COc1ccc(OC)c(S(=O)(=O)N/N=C\c2ccc3c(c2)OCO3)c1	3	u	-43	x	x	x	x
CCOCCn1c(C)c(C(=O)OCC)c2cc(O)c3ccccc3c21	x	3601	-21	5.6	6	6	-3
O=C(CCCOc1ccccc1)Nc1cccc([N+](=O)[O-])c1	0	5103	-14	3.5	7	7	11
Cc1cccc(C(=O)Nc2ccc3c(c2)ncn3C)c1	-5	2975	-34	4.2	5	1	10
O=C(Nc1ccccc1F)c1ccc2c(c1)OCO2	9	4004	-85	9.8	15	5	2
CC(OC(=O)c1ccc(S(=O)(=O)N(C)C)cc1)C(=O)Nc1ccc(Cl)cn1 (configuration not stated)	-5	1943	-12	x	x	x	x
CCOC(=O)CNC(=O)CSc1ncccc1-c1nc2ccccc2[nH]1	5	3875	-6	x	x	x	x
CC(=O)Nc1ccc(S(=O)(=O)NCCC(=O)OCc2ccc([N+](=O)[O-])cc2)cc1	3	5683	-23	2.9	4	9	4
CC(Sc1nnc(COc2ccc(Cl)cc2)o1)C(=O)Nc1ccc(N2CCOCC2)cc1 (configuration not stated)	x	u	-11	6.4	1	-6	10
OCCOCCNc1ncnc2c1cnn2-c1ccccc1	3	2132	-35	-0.5	x	x	0
O=C(CSc1nnc(CNc2ccc(F)cc2)o1)N1c2ccccc2Sc2ccccc21	x	20080*	-38	-5.7	4	1	-22
CCCn1c(=O)c2ccccc2n2c(SCc3c(C(=O)OCC)oc4ccccc34)nnc12	4	10290	-26	0.9	7	5	0
CC1(C)Cc2c(sc3nc(SCC(=O)NCc4ccccc4)n(-c4ccccc4)c(=O)c23)CS1	1	2895	-20	2.5	x	x	11
O=c1[nH]cc(F)c(=O)[nH]1	-8	6414	-11&-1	x	x	x	x
CN(C)C=Nc1nc2ncc(-c3ccc(Cl)cc3)c(N=CN(C)C)n2n1	x	x	x	-2.5	-4	8	-8
Cc1ccc2oc(=O)n(Cc3ccc(OC(C)C)cc3)c2c1	-5	3717	-21	x	x	x	x
C=CCN1C(=O)C(CC(=O)Nc2ccccc2)SC1=Nc1c(C)n(C)n(-c2ccccc2)c1=O (configuration not stated)	-2	3521	-2	3.2	2	0	13
COC(=O)c1[nH]c2cc(C)ccc2c1NC(=O)CN1CCN(C(=O)c2ccco2)CC1	-12	9491	-18	3.7	1	7	1
CC(Oc1ccc2ccccc2c1)C(=O)NN=Cc1cccnc1 (configuration not stated)	x	x	x	3.8	0	4	5
The list goes on:
SMILES	BJeLR viability	Bead autofluor	PrP 5UTR inh	RN4220 kill	Mtb hypoxia rep	Mtb hypoxia rep growth	Sa ugtP lethal
Cc1cc(NC(=O)CSc2nc(-c3ccco3)cc(C(F)(F)F)n2)no1	35	2524	67*	8.1	9	4	3
Cc1c(Cc2ccccc2)c(=O)oc2cc(OCc3nn[nH]n3)ccc12	1	2817	-17	4.1	x	x	-1
CCOC(=O)c1ccc(NC(=O)Nc2cccc(C)n2)cc1	-1	2460	-23	1.7	9	9	-7
CCCCOc1ccc(C(=O)Nc2cccc(-n3cnnn3)c2)cc1OC	6	6059	-15	-1.4	1	1	0
CC(=O)c1cccc(NC(=O)c2ccc3c(=O)n4c(nc3c2)CCCCC4)c1	x	5131	-28	-1.4	5	20	1
COCCNC(=O)c1onc(CSc2cccc(Cl)c2)c1C(=O)O	-7	4225	-13	6.9	5	0	4
CCOC(=O)C(=O)C1=C(N2CCOCC2)/C(=C\c2ccc(F)cc2)CC1	-1	2255	-9	8.9	16	9	2
CCOC(=O)C(NC(=O)C(Cc1ccc(N(CCCl)CCCl)cc1)NC(C)=O)C(C)C (configuration not stated)	-7	4264	7	-0.1	15	2	2
Cc1c(-c2cccc(Cl)c2)nc2ccccc2c1C(=O)OCC(=O)N(C)C1CCS(=O)(=O)C1 (configuration not stated)	-3	4455	-14	-0.6	2	15	8
COC(=O)c1cc(C#N)c(=O)[nH]c1C	-1	2377	-22	2.7	13	7	3
Oc1ccc(Br)cc1-c1ccn[nH]1	-1	2001	-10	-0.2	-7	-4	2
CCn1c(C)nc2cc(C(=O)NN=Cc3ccc([N+](=O)[O-])cc3)ccc21	x	3970	4	1.1	2	-7	-2
COC(=O)CC/C(=N/Nc1ccc(Cl)c(Cl)c1)C(=O)OC	-1	3223	-34	x	x	x	x
COc1ccc(Cl)cc1S(=O)(=O)N1CCCC(C(=O)NCc2ccccc2)C1 (configuration not stated)	5	6213	-7	-1.0	-2	0	6
CCCCCCCCCn1c2c(c(=N)c3c1CCC3)CCCC2	47	4800	-14	100*	x	x	100*
Cc1nc(N)c(CC(Br)CBr)c(Cl)n1 (configuration not stated)	-4	4763	-40	3.3	-2	-4	-8
Fc1cccc(Cl)c1CSc1ccc(-c2cccnc2)nn1	-2	x	-28	2.8	11	4	-12
CN(CCCNC(=O)c1ccc(CS(=O)c2ccc(Br)cc2)o1)Cc1ccccc1 (configuration not stated)	-5	5950	-10	1.6	4	5	15
CCc1nnc(NC(=O)CSc2nnc(CNc3ccc(F)cc3)n2C2CCCCC2)s1	-13	16238*	-6	7.4	4	4	-3
CN(C)c1ccc(N2CN=C3SCC(=O)N3C2)cc1	2	6700	-7	8.9	8	10	12
O=S(=O)(Nc1ccccc1O)c1ccc(Cl)nc1	-9	3292	-3	8.0	14	9	6
COc1ccc(NC(=O)NNC(=O)c2ccc3ccccc3c2O)cc1OC	0	5653	-24	0.5	2	-2	-2
COc1cc(/C=N/NC(=O)CCN2CCCCC2)ccc1O	-5	4427	-15	x	x	x	x
O=C1NC(=O)N(c2ccc3c(c2)OCO3)C(=O)C1=Cc1ccc(N2CCCC2)o1	x	x	x	6.6	40*	4.7*	6
O=C(/C=C/c1ccc2c(c1)OCO2)NCc1cn2cc(Cl)ccc2n1	12	4549	-13	-2.0	11	-3	-2
Cc1ccc(NC(=O)CCNS(=O)(=O)c2cccc3nsnc23)cc1F	0	3674	-23	2.4	-3	-3	3
N#CCCN(Cc1cccs1)C(=O)Nc1ccc(F)cc1	-3	3690	-53	-0.5	3	-2	-1
Cc1nc2ccccc2c2oc(C(=O)NCc3ccccn3)cc12	16	10656	-45	0.4	4	10	0
CC(C)N1CCC(NC(=O)Nc2ccc3c(c2)OCO3)CC1	-9	2247	-27	-2.4	-3	14	-7
CCOc1ccc(Cl)cc1/C=N/NC(N)=O	6	4106	-28	x	x	x	x
COC(=O)N1CCN(c2ccc(Cl)c(Cl)c2)CC1	16	10111	-21	9.4	7	11	0
Cc1ccc(OC(=O)CN2C(=O)c3ccccc3C2=O)cc1C	-3	3659	-14	0.5	16	4	2
